Source: PubChem BioAssay
Vaccinia stage: blocks a specific stage of Vaccinia orthopoxvirus infection; Vaccinia-infected cells, mCherry/Venus stage reporter fluorescence; active compounds read low; some inactives read as strong as hits; activity change (mCherry), % (concentration not given with the values); 89,000 tested, 0.01% active; AID 1053133;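 active = mCherry past -33% and 40 or more points under the early reporter, replicates agreeing; inconclusive = past -33% without that gap or agreement; tested in A549 cells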;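 note: scaled between vehicle wells and reference inhibitor wells; 23 nL library stock went into each well; one replicate is shown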
Vaccinia stage Venus: further read-out of Vaccinia stage, marked with its call; activity change (Venus), %; measured here: Venus reporter, other viral stage;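 negative = less Venus signal; first of two replicates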
* hit, by the source's call; ? = inconclusive; · = no result given.

structure,Vaccinia stage,Vaccinia stage Venus
O=C(c1cccc(F)c1)N1CC(=O)N2[C@H](C1)[C@H](c1ccc(-c3ccccc3F)cc1)[C@@H]2CO,-23.9,-37.6
COc1cccc(S(=O)(=O)N(C)C[C@@H]2Oc3cc(C4=CCCC4)ccc3S(=O)(=O)N([C@H](C)CO)C[C@H]2C)c1,-11.1,-4.1
Cc1noc(C)c1NC(=O)Nc1ccc2c(c1)C(=O)N([C@@H](C)CO)C[C@H](C)[C@@H](CN(C)Cc1ccccc1)OCCCC[C@H](C)O2,18.9,5.2
CC(C)NC(=O)Nc1ccc2c(c1)CC(=O)N([C@@H](C)CO)C[C@@H](C)[C@@H](CN(C)S(=O)(=O)c1ccccc1)O2,3.8,8.3
COc1ccc2c3c(n(C)c2c1)[C@H](CO)N(C(=O)C1CC1)CC31CN(Cc2ccccc2OC)C1,?,·
Cc1ccc(S(=O)(=O)N(C)C[C@@H]2OCCCC[C@@H](C)Oc3ccc(NS(=O)(=O)c4ccc(F)cc4)cc3C(=O)N([C@H](C)CO)C[C@H]2C)cc1,?,·
C[C@H](CO)N1C[C@H](C)[C@H](CN(C)Cc2ccc(Oc3ccccc3)cc2)Oc2ccc(NC(=O)CCCN(C)C)cc2CC1=O,-18.1,-14.9
C[C@H]1CN([C@@H](C)CO)C(=O)c2cc(/C=C/c3ccccc3)cnc2O[C@H]1CN(C)C(=O)Cc1ccccn1,7.4,6.3
C[C@H](CO)N1C[C@H](C)[C@H](CN(C)Cc2ccncc2)Oc2c(NC(=O)Nc3ccc(F)cc3)cccc2C1=O,13.8,23.5
CCNC(=O)C[C@@H]1CC[C@@H]2[C@@H](COc3ccc(NC(=O)Nc4ccccc4C)cc3C(=O)N2C)O1,7.6,9.5
O=C(C[C@@H]1CC[C@@H](NC(=O)c2cccnc2)[C@@H](CO)O1)NCc1ccc(Cl)c(Cl)c1,10.3,20.1
C[C@@H]1CN([C@@H](C)CO)C(=O)c2cc(-c3cccnc3)cnc2O[C@H]1CN(C)C(=O)C1CCOCC1,20.2,1.9
COc1ccc2c3c([nH]c2c1)[C@@H](CO)N(Cc1cccc(F)c1)CC31CN(Cc2ccccn2)C1,4.9,6.6
C[C@@H]1CCCCO[C@@H](CN(C)C(=O)Nc2cccc3ccccc23)[C@H](C)CN([C@@H](C)CO)C(=O)c2cc(NC(=O)Nc3ccc(C(F)(F)F)cc3)ccc2O1,0.3,1.1
COc1ccc(NC(=O)Nc2ccc3c(c2)[C@@H]2C[C@@H](CC(=O)N4CCN(C)CC4)O[C@@H](CO)[C@@H]2O3)cc1,-8.0,-5.3
C[C@H]1CN([C@@H](C)CO)C(=O)Cc2cc(NC(=O)Nc3cccc4ccccc34)ccc2O[C@H]1CN(C)Cc1ccc(C(=O)Nc2ccccc2N)cc1,4.7,2.2
COc1ccc(S(=O)(=O)Nc2ccc3c(c2)C(=O)N([C@H](C)CO)C[C@H](C)[C@@H](CN(C)S(=O)(=O)c2cn(C)cn2)OCCCC[C@@H](C)O3)cc1,21.2,16.3
O=C(C[C@H]1C[C@@H]2c3cc(NS(=O)(=O)c4ccc(F)cc4)ccc3O[C@@H]2[C@H](CO)O1)NC1CCCCC1,-6.1,1.9
COc1ccccc1NC(=O)N1CC(=O)N2[C@@H](CO)[C@H](c3ccc(C#Cc4ccc(F)cc4)cc3)[C@@H]2C1,-27.9,-22.1
COc1ccc(NC(=O)N[C@@H]2CC[C@H](CCn3cc(-c4ccc(OC)cc4)nn3)O[C@@H]2CO)cc1,-3.8,-4.3
C[C@H](CO)N1C[C@H](C)[C@@H](CN(C)S(=O)(=O)c2ccccc2)OCCCC[C@H](C)Oc2ccc(N(C)C)cc2C1=O,-14.7,-7.9
C[C@H]1CN([C@@H](C)CO)C(=O)CCCn2cc(nn2)CO[C@H]1CN(C)Cc1ccc(O)cc1,7.6,7.2
C[C@H]1CN([C@@H](C)CO)S(=O)(=O)c2ccc(C#CCC3CCCC3)cc2O[C@@H]1CN(C)C(=O)c1ccccn1,?,·
COc1cccc(C(=O)Nc2ccc3c(c2)OC[C@H](C)N(CCc2ccccc2)C[C@H](C)[C@@H](OC)CN(C)C3=O)c1,-23.4,-3.0
Cc1noc(C)c1NC(=O)N[C@@H]1C=C[C@H](CC(=O)NCCCN(C)C)O[C@H]1CO,7.7,2.6
CN1CCN(C(=O)C[C@@H]2CC[C@@H]3[C@H](COC[C@H](O)CN3C(=O)Nc3cc(Cl)cc(Cl)c3)O2)CC1,-1.5,-3.9
CCc1cnc(N2[C@H](C#N)[C@H](c3ccccc3-c3ccccc3C)[C@H]2CO)s1,-6.3,4.0
Cc1ccc(S(=O)(=O)Nc2ccc3c(c2)CC(=O)N([C@@H](C)CO)C[C@H](C)[C@H](CN(C)Cc2ccc4c(c2)OCO4)O3)cc1,?,·
COc1ccc(S(=O)(=O)N2C[C@H](O)COC[C@@H]3O[C@H](CC(=O)NCCN4CCCCC4)CC[C@H]32)cc1,6.3,3.1
COCC(=O)N1CCCCN2[C@H](C1)[C@@H](c1ccc(-c3ccc(F)cc3)cc1)[C@@H]2CO,-3.6,-2.1

3 structures from above, sorted by length of the SMILES, high to low.
structure,Vaccinia stage,Vaccinia stage Venus
COc1ccc2c3c([nH]c2c1)[C@@H](CO)N(Cc1cccc(F)c1)CC31CN(Cc2ccccn2)C1,4.9,6.6
COc1ccc2c3c(n(C)c2c1)[C@H](CO)N(C(=O)C1CC1)CC31CN(Cc2ccccc2OC)C1,?,·
Cc1noc(C)c1NC(=O)N[C@@H]1C=C[C@H](CC(=O)NCCCN(C)C)O[C@H]1CO,7.7,2.6

Next section:
structure,Vaccinia stage,Vaccinia stage Venus
C[C@@H]1CN([C@@H](C)CO)C(=O)c2cc(N(C)C)ccc2O[C@H]1CN(C)S(=O)(=O)c1cn(C)cn1,-4.3,-4.0
COCC(=O)N(C)C[C@H]1Oc2cc(-c3ccccc3F)ccc2S(=O)(=O)N([C@@H](C)CO)C[C@@H]1C,-20.6,-16.0
O=C(C1CC1)N1CC2(C1)[C@H](c1ccccc1)[C@H](CO)N2CC1CCCC1,-4.2,7.5
O=C(NCC[C@@H]1CC[C@H](NC(=O)C2CCOCC2)[C@@H](CO)O1)c1ccc(F)cc1,10.3,4.5
COc1ccc(S(=O)(=O)N(C)C[C@H]2Oc3ccc(NC(=O)Cc4ccccc4)cc3C(=O)N([C@@H](C)CO)C[C@@H]2C)cc1,3.9,5.9
OC[C@H]1[C@@H](c2ccc(-c3cccc(F)c3)cc2)[C@H]2CN(CCC(F)(F)F)CCCCN21,?,·
N#C[C@@H]1[C@H](c2ccc(-c3cncnc3)cc2)[C@H](CO)N1C(=O)C1CC1,15.8,12.4
C[C@H](CO)N1C[C@H](C)[C@H](CN(C)S(=O)(=O)c2ccc(Cl)cc2)Oc2ccc(NC(=O)C3CC3)cc2CC1=O,-13.7,-15.5
C[C@@H]1CCCCO[C@H](CN(C)C(=O)Nc2ccc3c(c2)OCO3)[C@H](C)CN([C@H](C)CO)C(=O)c2cc(NC(=O)c3ccccc3)ccc2O1,-18.7,-21.4
C[C@@H]1CN([C@H](C)CO)C(=O)c2cc(NC(=O)C3CC3)ccc2O[C@H]1CN(C)C,13.5,-6.8
COc1ccc2c3c([nH]c2c1)[C@@H](CO)N(C(=O)NC(C)C)CC31CN(Cc2ccccc2)C1,-18.6,-29.1
CO[C@H]1CN(C)C(=O)c2cc(NC(=O)CC(F)(F)F)ccc2OC[C@H](C)N(C(=O)C2CC2)C[C@H]1C,4.6,9.8
C[C@H](CO)N1C[C@H](C)[C@H](CN(C)S(=O)(=O)c2ccc(C#N)cc2)Oc2ncc(C#Cc3ccc(F)cc3)cc2C1=O,?,·
COc1ccc2c3c(n(C)c2c1)[C@H](CO)N(Cc1ccc(F)cc1)CC31CN(C)C1,-2.3,0.6
O=C(NCC1CCCCC1)[C@H]1[C@H](CO)[C@H]2Cn3c(ccc(-c4ccccc4)c3=O)[C@@H]1N2,-9.8,-1.6
CN1C(=O)c2cc(NC(=O)c3ccccc3F)ccc2OC[C@H]2O[C@H](CC(=O)NCc3ccc4c(c3)OCO4)CC[C@H]21,6.6,10.7
Cc1noc(C)c1S(=O)(=O)Nc1ccc2c(c1)C(=O)N([C@H](C)CO)C[C@H](C)[C@@H](CN(C)C(=O)CCC(F)(F)F)OCCCC[C@H](C)O2,-3.3,-3.1
Cc1ccc(S(=O)(=O)N(C)C[C@@H]2Oc3cc(C#CC4CCCC4)ccc3S(=O)(=O)N([C@@H](C)CO)C[C@@H]2C)cc1,-14.0,-9.3
C[C@H]1CN([C@@H](C)CO)C(=O)c2cc(NC(=O)NC3CCCCC3)ccc2O[C@H]1CN(C)C,18.5,19.7
CCCNC(=O)N1CCC2(CC1)CN(C(=O)COC)[C@H](CO)c1c2c2ccc(OC)cc2n1C,7.1,-1.3
CN1CCCCN2[C@H](CO)[C@@H](c3ccc(Br)cc3)[C@H]2C1,1.3,-0.1
COc1ccc(CNC(=O)C[C@H]2C=C[C@@H](NC(=O)c3cccc(F)c3)[C@@H](CO)O2)cc1,-15.1,-0.2
COc1ccc(S(=O)(=O)N(C)C[C@@H]2Oc3c(NC(=O)NC4CCCCC4)cccc3C(=O)N([C@H](C)CO)C[C@H]2C)cc1,-13.0,-15.3
C[C@@H]1CN([C@@H](C)CO)C(=O)Cc2cc(NC(=O)CCC(F)(F)F)ccc2O[C@@H]1CN(C)S(=O)(=O)c1ccc(Cl)cc1,-0.7,-3.1
C[C@H]1CN([C@@H](C)CO)C(=O)c2cc(NC(=O)CCCN(C)C)ccc2O[C@@H]1CN(C)Cc1ccc(-c2ccccc2)cc1,-31.2,-29.4
C[C@@H]1CCCCO[C@H](CN(C)S(=O)(=O)c2ccc(F)cc2)[C@@H](C)CN([C@H](C)CO)C(=O)c2cc(N(C)C)ccc2O1,-3.7,-10.7
C[C@@H]1CCCCO[C@H](CN(C)C(=O)Nc2cccc3ccccc23)[C@H](C)CN([C@@H](C)CO)C(=O)c2cc(NC(=O)C3CCCCC3)ccc2O1,-0.7,4.4
C[C@@H]1CCCCO[C@H](CN(C)C(=O)C2CCCCC2)[C@@H](C)CN([C@@H](C)CO)C(=O)c2cc(NC(=O)Nc3ccccc3)ccc2O1,-28.9,-20.7
C[C@H](CO)N1C[C@H](C)[C@H](CN(C)C(=O)c2cccnc2)Oc2ncc(-c3ccc(C(=O)N(C)C)cc3)cc2C1=O,1.3,-9.7
C[C@@H]1CN([C@H](C)CO)C(=O)c2c(c3ccccc3n2C)-c2ccccc2CO[C@@H]1CN(C)Cc1ccc(Cl)c(Cl)c1,?,·
Cc1ccc(S(=O)(=O)Nc2cccc3c2O[C@H](CN(C)C(=O)Nc2ccc4c(c2)OCO4)[C@@H](C)CN([C@@H](C)CO)C3=O)cc1,9.8,10.7
CCCN1C[C@@H](C)[C@H](OC)CN(C)C(=O)c2ccc(NC(=O)c3cnccn3)cc2OC[C@@H]1C,13.0,1.2
COc1ccc(NC(=O)Nc2ccc3c(c2)C(=O)N([C@@H](C)CO)C[C@@H](C)[C@H](CN(C)C(=O)Nc2c(C)noc2C)OCCCC[C@H](C)O3)cc1,19.6,13.7
Cc1ccc(S(=O)(=O)N[C@H]2CC[C@@H](CCNC(=O)Nc3ccc(Cl)cc3)O[C@H]2CO)cc1,?,·
CN(C)CCCNC(=O)C[C@@H]1CC[C@@H]2[C@H](COc3ccc(NC(=O)c4ccc5c(c4)OCO5)cc3C(=O)N2C)O1,5.3,8.0
C[C@H]1CN([C@@H](C)CO)C(=O)c2cc(NC(=O)NC3CCCCC3)ccc2O[C@@H]1CN(C)Cc1ccc(C(=O)O)cc1,6.5,-1.3
C[C@H]1CN([C@@H](C)CO)C(=O)c2cc(NS(C)(=O)=O)ccc2O[C@@H]1CN(C)C(=O)NC1CCCCC1,6.6,3.9
O=C(C[C@H]1CC[C@@H]2[C@H](COC[C@H](O)CN2CC2CCOCC2)O1)N1CCOCC1,-2.2,-2.1
CCCNC(=O)N(C)C[C@@H]1Oc2ncc(C#CCC(C)C)cc2C(=O)N([C@@H](C)CO)C[C@H]1C,11.9,12.5
CCNC(=O)c1cc2c(c(-c3cccc(-c4cncnc4)c3)n1)[C@@H](CCO)N(C(C)=O)C2,8.5,7.7
C[C@@H]1CN([C@H](C)CO)S(=O)(=O)c2ccc(-c3cccnc3)cc2O[C@@H]1CN(C)CC1CC1,12.4,-1.0
C[C@@H]1CCCCO[C@@H](CN(C)C(=O)NC2CCCCC2)[C@@H](C)CN([C@H](C)CO)C(=O)c2cc(NC(=O)Cc3ccccc3)ccc2O1,4.5,7.3
Cc1noc(C)c1NC(=O)N(C)C[C@H]1OCCCC[C@@H](C)Oc2ccc(NS(=O)(=O)c3cccs3)cc2C(=O)N([C@H](C)CO)C[C@H]1C,29.7,11.0
Cc1noc(C)c1S(=O)(=O)N(C)C[C@@H]1OCCCC[C@@H](C)Oc2ccc(NC(=O)CCCCCC(=O)Nc3ccccc3N)cc2C(=O)N([C@H](C)CO)C[C@@H]1C,2.6,14.0
CC(C)NC(=O)N(C)C[C@H]1Oc2ccc(NS(=O)(=O)c3ccc(F)cc3)cc2C(=O)N([C@H](C)CO)C[C@H]1C,7.7,9.0
O=C(Nc1cccc(F)c1)N1CCCCN2[C@H](CO)[C@@H](c3ccc(C#Cc4ccccc4)cc3)[C@@H]2C1,?,·
Cc1ccccc1S(=O)(=O)N1CC(=O)N2[C@H](C1)[C@H](c1ccc(C#CCC(C)C)cc1)[C@@H]2CO,-1.8,-0.5

Only part of the results is shown. The share of hits here may be higher or lower than overall.
